# Screens (PubChem BioAssay)
# D2 agonist: agonists of human D2 dopamine receptor (beta-arrestin). P14416. DiscoveRx PathHunter D2 beta-arrestin, luminescence, 90 min; 100% = 57 uM dopamine signal. 0.084% of 360,000 active. activation, % (test concentration not listed); in the data active = activation above about 40%; inconclusive = about 15% to 40%; inactive = below about 15%; note: compound concentration not given in the record; the text of the record calls up to 30% inactive
# Target sequence (P14416 whole entry, looked up): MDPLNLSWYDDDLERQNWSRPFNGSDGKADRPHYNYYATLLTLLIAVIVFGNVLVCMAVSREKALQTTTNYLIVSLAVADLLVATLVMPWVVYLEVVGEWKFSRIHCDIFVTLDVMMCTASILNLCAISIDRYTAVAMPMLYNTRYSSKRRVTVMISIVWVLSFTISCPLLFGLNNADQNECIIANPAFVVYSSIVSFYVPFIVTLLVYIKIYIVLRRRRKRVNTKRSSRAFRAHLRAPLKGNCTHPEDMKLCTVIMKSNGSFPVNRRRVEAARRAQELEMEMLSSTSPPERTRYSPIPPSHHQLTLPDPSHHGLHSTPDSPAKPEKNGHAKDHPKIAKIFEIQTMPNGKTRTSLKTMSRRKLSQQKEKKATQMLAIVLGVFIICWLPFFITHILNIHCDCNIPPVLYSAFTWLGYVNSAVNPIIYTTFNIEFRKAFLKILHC
#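 Agonist mode: compounds alone added to overnight-plated D2 PathHunter cells for 90 min at 37 C, with 57 uM final dopamine (EC100) defining full response. Beta-arrestin recruitment detected by chemiluminescent reagent, read after 1 h at ambient temperature.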
# Sfp inh: Sfp phosphopantetheinyl transferase inhibition; Q9F4F7; Biochemical Sfp PPTase activity, qHTS; Potency, µM, for inactives: max response, negative = inhibition, usual class: inhibitors; 3.5% of 310,000 active; AID 1490; active = well fitted inhibition curve with a large enough effect; inconclusive = small, poorly fitted or top-dose-only effect, or another doubt; inactive = no such curve, though single readings can be large or run the other way;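 note: the enzyme is Sfp with the accession as filed and its product quenches rhodamine fluorescence; potency is the fitted concentration of half-maximal effect; 0% = enzyme reaction without inhibitor and -100% = no enzyme wells; top concentration of the series not given in the record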
#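 Fluorescence-quenching assay with 15 nM Sfp, 5 uM rhodamine-CoA and 12.5 uM BHQ-2-labelled ybbR peptide in pH 7.6 Hepes/MgCl2 buffer. Enzyme was pre-incubated with compound for 15 min at room temperature. Rate was taken from the 30-min fluorescence change (525/598 nm).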
# gsp antag: gsp mutant antagonism; gsp-mutant cells, cAMP HTRF, 30 min; control for the full effect not named in the record; Potency, µM (highest dose often 76.9 µM), for the others: at the top dose activity change, negative = inhibition, most hits filed as inhibitors; 0.4% of 340,000 active; active = falling curve of any shape with a large fitted effect; inconclusive = falling curve, mostly with a smaller effect; inactive = flat or rising curve; cell line not stated here;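 note: intracellular cAMP measured with PDE inhibitor Ro 20-1724 present during compound exposure; potency is the fitted concentration of half-maximal effect; % is set by controls: 0 for no effect and ±100 for the full control effect; nearly all actives have a fitted effect of over 65% in size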
#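 HTRF cAMP read-out (cAMP-d2 plus anti-cAMP antibody-K in lysis buffer, 30 min RT). Before lysis, cells are exposed to compounds with […] for 30 min at 37C in DPBS containing Ca/Mg, BSA and Tween 20.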
# ClpP mod: qHTS Assay for Activators of ClpP. ATP-dependent Clp protease proteolytic subunit (Bacillus subtilis (strain 168)), P80244. purified B. subtilis ClpP, FRET peptide cleavage, 20 min. Potency, µM (doses to about 57.5 µM), without a hit: at the top dose activity change, negative = active. 1.9% of 340,000 active; active = well fitted falling curve with a large enough effect; inconclusive = small, poorly fitted or top-dose-only effect; inactive = no such curve, though single readings can be large or run the other way; note: potency is the fitted concentration of half-maximal effect; the source files actives as falling curves though it sought activators and does not explain the sign; nearly all actives have a fitted effect of over 65% in size; many hits overshoot -100%
# Target sequence (P80244 whole entry, looked up): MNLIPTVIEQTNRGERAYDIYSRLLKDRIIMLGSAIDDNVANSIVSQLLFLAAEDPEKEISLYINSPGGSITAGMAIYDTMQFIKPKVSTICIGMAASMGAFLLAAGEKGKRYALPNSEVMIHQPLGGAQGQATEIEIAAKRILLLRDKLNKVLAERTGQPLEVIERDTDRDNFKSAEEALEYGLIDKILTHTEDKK
#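 ClpP 10 microg/mL final, pH 8 Tris/KCl buffer with BSA, glycerol, Tween-20; compound pinned in; FRET-FV substrate; RT 20 min; Ex320/Em430; ΔFRET vs ADEP 5.8 microM, DMSO, no enzyme.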
# PINK1 expr mod: modulators of PINK1 expression; PINK1 immunofluorescence, high-content cytometry, 24 h; Potency, µM (top dose mostly 76.6 µM), without a hit: at the top dose activation (PINK1 increase), hits mostly activators; 0.2% of 410,000 active; active = well fitted activation curve with a large enough effect; inconclusive = small, poorly fitted or top-dose-only effect; inactive = flat fitted curve, though single readings scatter; cell line not stated here;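 note: potency is the fitted concentration of half-maximal effect; % of control where 0% means no effect; nearly all actives have a fitted effect of over 65% in size; a mitochondrial uncoupler was the plate control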
#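 A stable cell line was treated with compounds at 5 concentrations for 24 hours, with CCCP as control. PINK1 levels and mitochondrial localization were measured by immunofluorescence with mitochondrial, cell and nuclear markers after fixation, read by laser-scanning cytometry.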
# Menin MLL FP FL: menin-MLL binding inhibition, fluorescein peptide. Fluorescence polarization, fluorescein-MLL peptide displacement from menin. FP activity change, % at 61.4 µM. 290,000 tested, under 10 active. AID 1766; inconclusive = falling polarisation curve, or a change in total fluorescence; inactive = total fluorescence flat and polarisation flat or rising; no compound was filed as active; the % refers to the polarisation; negative = inhibition;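 note: % of control where 0% means no effect; inhibitors lower the polarisation; unlabelled MLL peptide was the positive control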
# gsp ag: activates gsp, the McCune-Albright syndrome mutation; gsp mutant cells, cAMP HTRF, 30 min; control for the full effect not named in the record; Potency, µM (series often up to 76.9 µM), inactives show at the highest dose activation (cAMP increase), hits mostly activators; 0.13% of 340,000 active; active = well fitted activation curve with a large enough effect; inconclusive = small, poorly fitted or top-dose-only effect, or another doubt; inactive = no such curve, though single readings can be large or run the other way; cell line not stated here;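 note: phosphodiesterase inhibitor Ro 20-1724 added with compounds to block cAMP breakdown; potency is the fitted concentration of half-maximal effect; nearly all actives have a fitted effect of over 60% in size; about a fifth of the inactives were tested at one dose only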
#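 Cells stably selected in G418 were plated at 2000/well, grown 16-24 hr, then given compounds in DMSO with the PDE inhibitor […] (300 uM solution added) for 30 min at 37C; cAMP was read by HTRF.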
# Starred values were filed as active, the others as inactive; ? = inconclusive; / = not tested or not shown; & = joins results of further samples; [ ] = dose if it differs, or a comment.
# Every second line gives: D2 agonist	Sfp inh	gsp antag	ClpP mod	PINK1 expr mod	Menin MLL FP FL	gsp ag
CCC(Sc1nc(-c2cccc(OC)c2)c(C#N)c(=O)[nH]1)C(=O)Nc1nnc(C(C)C)s1 (stereo not drawn)
→ -5.9	1%	-11%	/	3.3%	-0.5	25%
Cc1ccc(C2OCC3(CO2)COC(c2ccc(C)cc2)OC3)cc1 (stereo not drawn)
→ -2.8	9%	10%	0.6%	1.9%	1.4	-3%
CCOCCCNC(=O)CSc1nnc(-c2ccc(S(=O)(=O)N3CCCC3)cc2)n1C
→ -4.4	7%	7%	-0.7%	0.5%	-6.4	15%[15.4 µM]
Cc1ccc(SCCNC(=O)/C=C/c2cccc([N+](=O)[O-])c2)cc1
→ -5.0	-5%	-20%	-1.0%	1.9%	10	-3%
CCCCN1C(=O)C(CC(=O)NCCCCc2ccccc2)CC(C(=O)N(C)C)=C1C (stereo not drawn)
→ -1.3	/	/	-0.3%	0.7%	/	8%
Cc1ccc2nc(Cl)c3cc(C(=O)N(CCN(C)C)Cc4ccco4)sc3c2c1
→ -0.6	-10%	26%	25µM*	-6.6%	0.7	-3%
Cc1ccc(C(=O)N/C(=C\c2ccc(-c3ccc([N+](=O)[O-])cc3)o2)C(=O)NC2CCS(=O)(=O)C2)cc1 (stereo not drawn)
→ 6.8	-7%	-10%	0.9%	3.0%	?	16%
CC(=O)Nc1nnc(SCC(=O)N2CCN(Cc3ccccc3)CC2)s1
→ -3.7	8%	11%	1.0%	4.5%[38.3 µM]	-0.5	12%
O=C(O)c1ccc2c3c(cccc13)C(=O)N(c1cccc3ccccc13)C2=O
→ -1.9	10%	4%	/	4.3%	3.7	-6%[15.4 µM]
CCCCNC(=O)CCSc1nc2nc(C)cc(C)n2n1
→ 0.7	-2%	-1%	-6.1%	-0.5%[38.3 µM]	-1.5	11%
CS(=O)(=O)N(CC(=O)N1CCCC1)c1cccc(Cl)c1Cl
→ 0.6	1%	3%	0.8%	-4.6%[38.3 µM]	6.2	-13%
CN(Cc1nc2ccccc2[nH]1)C(=O)C1CCC(=O)N(CCc2cccc(F)c2)C1 (stereo not drawn)
→ -0.2	16%	-8%	-1.9%	-0.2%	/	?
CN1CCN(c2ncnc3ccc(-c4ccccc4Cl)cc23)CC1
→ /	8%	/	/	1.2%	2.3	/
CCOc1cc(CNc2ccc(Br)cc2)cc(Br)c1OCC(=O)NC(C)(C)C
→ -2.0	7%	-11%	0.2%	-1.9%[38.3 µM]	2.5	-9%
COc1ccc(-n2nc(C(=O)NCC(=O)N3CCN(Cc4ccccc4)CC3)c3ccccc3c2=O)c(OC)c1
→ 0.4	3%	-10%	/	0.8%	-2.7	-24%

# The list continues:
# Every second line gives: D2 agonist	Sfp inh	gsp antag	ClpP mod	PINK1 expr mod	Menin MLL FP FL	gsp ag
O=C(/C=C/c1ccco1)c1ccccc1O
→ -3.5	?	3%	/	2.2%	6.7	6%[15.4 µM]
COCCNC(=O)c1ccc(N2CC3CC(C2)c2cccc(=O)n2C3)c(NC(=O)c2ccccc2Br)c1 (stereo not drawn)
→ -2.1	/	/	0.9%	1.0%	/	?
O=C(Cn1c(=O)n(-c2ccc(F)cc2)c(=O)c2sccc21)N1CCCC1
→ -2.6	7%	0%	-1.5%	8.6%[38.3 µM]	2.4	-7%
CCn1c(-c2ccccc2Cl)nn(CC(=O)Nc2ccc(OC)cc2)c1=S
→ -2.2	8%	-2%	-1.6%	2.7%	2.7	0%
CC1=CC(C)(C)N(C(=O)CSc2nccn2C)c2cc(C)ccc21
→ 0.0	4%	-2%	-0.1%	1.5%[38.3 µM]	0.6	-30%
Clc1ccc(CN2CCN(c3ncccn3)CC2)c(Cl)c1
→ 79*	-34%	9%	-0.2%	13%	-4.7	8%
N/C(Cc1ccc([N+](=O)[O-])cc1)=N\OC(=O)C1CCCCC1
→ 13	?	16%	-1.8%	2.0%	2.3	?
CC(C)N(CCC(=O)c1ccc2ccccc2c1)Cc1ccccc1
→ -6.0	4µM*	5%	103%&7.3%	-0.8%&4.8%	1.3&-2.4	/
CC(NC(=O)CSc1nnc(-c2cc3cc(Cl)ccc3o2)n1C)c1ccccc1 (stereo not drawn)
→ -1.6	-13%	2%	-16%	4.3%	-1.0	39%
Cc1nc(N)ncc1Sc1ccccc1
→ -8.2	0%	18%	1.2%	-1.6%	-5.3	-4%[15.4 µM]
CCn1c(SCC(=O)c2ccc3c(c2)OCCO3)nnc1-c1ccco1
→ -3.0	-74%	-5%	-14%	-0.1%	2.9	26%
COc1ccc2oc(C(=O)OC/C(O)=C(\C#N)c3nc4ccccc4[nH]3)c(C)c2c1
→ 1.6	-6%	3%	-14%	?	9.5	26%
COC(Cc1n[nH]c(=S)n1-c1ccccc1)OC
→ -0.5	1%	6%	-2.9%	-16%[38.3 µM]	3.7	8%
CCC(C)(C)C1CCC2(CC1)NC(=O)N(CC(=O)NCCc1c[nH]c3ccccc13)C2=O (stereo not drawn)
→ 2.0	/	1%	3.2%	6.5%	/	-75%[inhibitor]
Cc1nn(-c2ccccc2)c(Cl)c1C(=O)OC(C)C(=O)NC(=O)NC1CCCCC1 (stereo not drawn)
→ 4.5	5%	13%	-2.1%	0.1%	9.1	-21%

# The list continues:
# Every second line gives: D2 agonist	Sfp inh	gsp antag	ClpP mod	PINK1 expr mod	Menin MLL FP FL	gsp ag
COc1ccc(C(C(=O)NCc2ccccc2)N(C(=O)c2snc(C(N)=O)c2N)C2CCCC2)cc1O (stereo not drawn)
→ 2.2	2%	-5%	-9.8%	0.6%	/	-4%
CC(C)=NNc1nc2sc3c(c2c(=O)[nH]1)CC(C)(C)OC3
→ -0.3	16µM*	-1%	/	3.9%	-1.1	8%[15.4 µM]
C/C(CC(=O)c1ccccc1)=N\NC(=O)CC#N
→ -3.3	18%	6%	-2.9%	-1.3%	-1.7	11%
CN(C)C(CNC(=O)c1ccc(Br)cc1)c1ccco1 (stereo not drawn)
→ 5.7	10%	9%	/	-0.6%	0.1	-1%
CCN(CC)P(=O)(/C(Cl)=C\Nc1c(C)n(C)n(-c2ccccc2)c1=O)N(CC)CC
→ -2.9	-16%	1%[15.4 µM]	1.0%	-0.1%	-0.7	-2%
O=C(Nc1ccc(F)cc1F)NC1CCCCCCC1
→ -2.4	14%	-9%	1.2%	24%	/	-14%
O=C(C1CCN(S(=O)(=O)N2CCCCC2)CC1)N1CCCCC1
→ -5.4	-5%	1%	1.4%	-2.4%	3.1	29%[15.4 µM]
c1ccc(-c2oc3ncnc(NCCCn4ccnc4)c3c2-c2ccccc2)cc1
→ -0.4	?	13%	?	-3.3%[38.3 µM]	3.1	0%
Cc1cc(C)nc(N/N=C/c2ccc(N3CCOCC3)cc2)n1
→ -5.2	24%	?	-5.3%	-0.1%	-2.6	-3%[15.4 µM]
COc1ccc2ccc3cccc[n+]3c2c1
→ 0.7	/	-5%	3.9%	-2.9%	/	24%
O=C(NN1CCOCC1)c1ccc(S(=O)(=O)N2CCCCC2)cc1
→ -5.3	15%	9%	-4.2%	3.3%	4.2	-18%[15.4 µM]
CN1CCC(N(C)C(=O)c2ccc(Cl)c(S(=O)(=O)N3CCc4ccccc43)c2)CC1
→ -0.9	/	3%	-3.8%	-0.8%	/	8%
O=S(=O)(Nc1nccs1)c1ccc(Br)cc1
→ -1.2	27%	-10%	/	1.2%	0.0	-3%[15.4 µM]
Cn1c(=O)[nH]c(=O)c2[nH]c(CO)nc21
→ 0.7	/	-4%	1.2%	-4.8%	/	-24%
Oc1ccccc1CNCc1ccccc1
→ -4.7	5%	4%	0.2%	1.4%	-0.5	1%[15.4 µM]

# Next section:
# Every second line gives: D2 agonist	Sfp inh	gsp antag	ClpP mod	PINK1 expr mod	Menin MLL FP FL	gsp ag
Cc1cc2cc(CN(Cc3nnnn3C3CCCCC3)CC3CCCO3)c(=O)[nH]c2cc1C (stereo not drawn)
→ -0.5	50µM*	-27%	?	/	-5.9	-2%
Cc1ccccc1CSCC(=O)Nc1ccccc1F
→ 6.0	14%	7%	/	0.7%	-6.2	-81%[inhibitor]
CC[C@@H]1CCCCc2ccccc2[C@H](C(=O)C[C@@H](O)CC(C)=O)OC1=O
→ -2.4	/	-6%	-3.9%	-0.8%	/	-37%[inhibitor]
Cc1cc(C)c2c(=O)[nH]c(SCC(=O)N3CCOCC3)nc2n1
→ -0.1	3%	-1%	/	-0.4%	-1.5	11%[15.4 µM]
CCc1ccccc1NC(=O)NCc1ccccn1
→ 3.6	19%	11%	-1.5%	-0.2%	/	?
CC1(NC(=O)c2cccc(S(=O)(=O)N3CCCc4ccccc43)c2)CCS(=O)(=O)C1 (stereo not drawn)
→ -0.8	/	7%	1.3%	1.1%	/	-40%[inhibitor]
COC(=O)C1CCN(C(=O)COC(=O)c2oc3ccccc3c2C)CC1
→ -1.1	/	-3%	/	-0.2%	/	-24%[15.4 µM]
CN(CC(=O)Nc1cccc(F)c1)CC(=O)N1CCc2ccccc21
→ 1.9	/	4%	0.7%	-0.7%	/	5%
Cc1cc(C)c(S(=O)(=O)Nc2cccc(/C=C/C(=O)O)c2)c(C)c1
→ 0.9	?	0%	0.1%	1.4%	-0.3	-11%[15.4 µM]
COC(C[C@@H]1O[C@@H]1C(=O)[C@H](C)OCc1ccccc1)OC
→ -2.9	/	7%	0.7%	-1.6%	/	-3%
COc1cccc(CN2CC(C(=O)NCCOc3cccnc3)CCC2=O)c1 (stereo not drawn)
→ 5.2	6%	11%	-1.7%	-1.1%	/	-42%[inhibitor]
Oc1[nH]c(N=C2N=c3ccccc3=N2)c2ccccc12
→ -3.1	6%	-11%	0.0%	-1.4%	?	15%[15.4 µM]
COc1ncnc2c1ncn2CCCNCC(c1ccccc1)c1ccccc1
→ -4.1	/	/	1.0%	-2.1%	/	?
O=C1NN=C2CCCCCCCCCCC12 (stereo not drawn)
→ -1.8	/	/	-1.9%	-1.3%	/	-1%
COc1ccc(CCNC(=O)C2CC(c3ccccc3[N+](=O)[O-])=NO2)cc1 (stereo not drawn)
→ 3.4	15%	-5%	-0.4%	-0.3%	1.3	-8%
